Screening data deposited in PubChem BioAssay by National Center for Advancing Translational Sciences (NCATS).
StopGo reporter – lowers the luciferase signal of an FMDV 2A StopGo reporter | human cells with a luciferase reporter of 2A StopGo recoding; control for the full effect not named in the record | 1.2% of 410,000 active | Potency, µM (doses to about 57.9 µM), without a hit: top-dose signal change, negative = less light; active = well fitted falling curve with a large enough effect; inconclusive = small, poorly fitted or top-dose-only effect; inactive = no such curve, though single readings can be large or run the other way; tested in HEK293T cells; also: % is scaled to controls: 0 for no effect and ±100 for the full control effect; nearly all actives have a fitted effect of over 45% in size; luciferase light after 4 h
SARS PLP yeast – blocks SARS-CoV papain-like protease in a yeast assay; Potency, µM (highest dose often 32.9 µM), without a hit: top-dose activity, positive = growth rescue; AID 485353; 0.19% of 330,000 active; S. cerevisiae expressing SARS-CoV PLpro, growth rescue; control for the full effect not named in the record; also: 0% is about no effect; nearly all actives have a fitted effect of over 55% in size; growth read by luminescence after 48 h
Lassa entry inh – blocks Lassa virus binding to or entry into cells; 1.2% of 300,000 active; Potency, µM (titrated, usually from 37.9 µM), inactives show at the top dose activity change, negative = inhibition, most hits filed as inhibitors; Lassa virus pseudotype entry inhibition, cell reporter; control for the full effect not named in the record; active means well fitted inhibition curve with a large enough effect; inconclusive means small, poorly fitted or top-dose-only effect, or effect the other way; inactive means flat fitted curve, though single readings scatter; tested in HEK293 cells; also: % is scaled to controls: 0 for no effect and ±100 for the full control effect; nearly all actives have a fitted effect of over 50% in size; luciferase read-out
NS1 function inh – blocks influenza NS1 protein function; S. cerevisiae slowed by influenza A NS1, growth recovery by OD600; Potency, µM (series often up to 46.1 µM), for inactives: top-dose activity, positive = more growth; 0.4% of 270,000 active; AID 2326; also: actives are rising curves; nearly all actives have a fitted effect of over 50% in size
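Read-out: OD600 growth recovery of NS1-expressing budding yeast. Cells grown overnight at 30C in -URA glucose medium, washed, resuspended and diluted 1:100 in 2% galactose assay medium, pH 6.0. Same strain lacking NS1 served as positive control.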
MARV entry inh – Marburg virus entry inhibition. Marburg virus pseudotyped entry inhibition, cell reporter; control for the full effect not named in the record; about a third of the inactives were read at about 46 µM. 1.8% of 300,000 active. Potency, µM (doses to about 37.8 µM), inactives show top-dose activity change, negative = inhibition, usual class: inhibitors; active = well fitted inhibition curve with a large enough effect; inconclusive = small, poorly fitted or top-dose-only effect, or effect the other way; inactive = flat fitted curve, though single readings scatter; tested in HEK293 cells; about a fifth of its hits are not listed in these tables; also: % is scaled to controls: 0 for no effect and ±100 for the full control effect; luciferase read-out
RE007 growth inh – less growth of the S. pombe RE007 Vpr strain; S. pombe RE007 Vpr strain, BacTiter-Glo ATP luminescence, 24 h; control for the full effect not named in the record; Potency, µM (highest dose often 92.2 µM), for inactives: top-dose activity change, negative = less growth; 0.21% of 360,000 active; active = well fitted falling curve with a large enough effect; inconclusive = small, poorly fitted or top-dose-only effect; inactive = no such curve, though single readings can be large or run the other way;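 also: % is scaled to controls: 0 for no effect and ±100 for the full control effect; nearly all actives have a fitted effect of over 50% in size; the assay follows cell death caused by Vpr and the record does not say whether a fall means rescue or toxicity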
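Fission yeast strain RE007, carrying one chromosomally integrated HIV-1 vpr copy, was seeded at OD 0.01 in PMG+AL medium with 23 nL pinned compound. After 24 h at 30 °C and 99% humidity, viability was read by BacTiter-Glo luminescence.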
Cruzain inh Det – blocks cruzain activity in presence of Triton detergent | purified cruzain, Z-FR-AMC fluorescence, 0.01% Triton | 0.43% of 200,000 active | Potency, µM, for the others: max response, negative = inhibition, hits mostly inhibitors | AID 1478; active = well fitted curve in the direction sought with a large enough effect; inconclusive = small, poorly fitted or top-dose-only effect, or another doubt; inactive = no such curve, though single readings can be large; an effect the other way counts as inactive or inconclusive;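 also: plate controls were neutral wells for no effect and buffer without enzyme for full effect; nearly all actives have a fitted effect of over 40% in size; top concentration of the series not given in the record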
Target sequence (P25779 123-467 limits assumed): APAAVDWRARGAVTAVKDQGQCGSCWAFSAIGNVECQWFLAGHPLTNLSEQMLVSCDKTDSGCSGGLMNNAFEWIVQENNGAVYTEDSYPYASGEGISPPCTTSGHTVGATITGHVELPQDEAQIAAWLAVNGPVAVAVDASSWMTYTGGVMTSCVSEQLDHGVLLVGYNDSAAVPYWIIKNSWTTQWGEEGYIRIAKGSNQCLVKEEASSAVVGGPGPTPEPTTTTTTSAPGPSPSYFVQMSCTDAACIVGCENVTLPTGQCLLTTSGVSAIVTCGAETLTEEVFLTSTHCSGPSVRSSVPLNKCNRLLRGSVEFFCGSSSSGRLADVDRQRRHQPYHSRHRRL
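Detergent-containing run (0.01% Triton X-100) in acetate buffer pH 5.5 with 5 mM DTT: enzyme at 1.5 nM final, 15 min compound preincubation at room temperature, then 2 uM Z-FR-AMC substrate. Activity taken as 60 s fluorescence increase at 360/450 nm.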
Cruzain inh noDet – inhibitors of Trypanosoma cruzi cruzain without detergent. P25779. purified cruzain, Z-FR-AMC fluorescence, no detergent. Potency, µM, inactives show max response, negative = inhibition, usual class: inhibitors. 2.3% of 200,000 active. AID 1476; active = well fitted curve in the direction sought with a large enough effect; inconclusive = small, poorly fitted or top-dose-only effect, or another doubt; inactive = no such curve, though single readings can be large; an effect the other way counts as inactive or inconclusive;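 also: plate controls were enzyme without inhibitor for no effect and buffer without enzyme for full effect; nearly all actives have a fitted effect of over 40% in size; top concentration of the series not given in the record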
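Purified cruzain at 1.5 nM, pre-incubated 15 min with compound at room temperature in 100 mM sodium acetate pH 5.5, 5 mM DTT, 0.00005% Triton X-100. Reaction started with 2 uM Z-FR-AMC; AMC fluorescence increase over 60 s gives rate.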
* hit, by the source's call; ? = inconclusive; · = no result given; & = joins results of further samples; [ ] = remark or other dose. Unless noted, calls follow the shape of the dose curve; as a rule, active means well fitted rising curve with a large enough effect; inconclusive means small, poorly fitted or top-dose-only effect; inactive means no such curve, though single readings can be large or run the other way. Potency is read from the fitted curve at half-maximal effect.

Values run as follows: Lassa entry inh	RE007 growth inh	NS1 function inh	SARS PLP yeast	StopGo reporter	Cruzain inh Det	Cruzain inh noDet	MARV entry inh
CCCCCCCCCCOC(=O)NC1CCS(=O)(=O)C1 (configuration not stated)
 : -19%	7%	·	-1%	-28%	·	·	12%[46.1 µM]
Cc1cccc(C(=O)NCCCN(C)CCCNC(=O)c2cccc(C)c2)c1
 : ·	6%	10%	5%	18%	·	·	·
CCOc1ccc(NC(=O)CC2C(=O)N(CC)C(=S)N2CCN2CCOCC2)cc1 (configuration not stated)
 : ·	0%	·	2%	-2%	·	·	5%[46.1 µM]
CC(C)NCC(O)COC1CCC(C(C)(C)C)CC1 (configuration not stated)
 : ?	-15%	·	-11%	-22%	·	·	?
O=C(NCc1ccc2c(c1)OCO2)c1c(O)c2cccc3c2n(c1=O)CCC3
 : 6%	5%	-10%	-3%	13%	0.9%	?	5%
NC(=O)c1ccc(N=Nc2c(O)[nH]c(=O)[nH]c2=O)cc1
 : ·	·	11%	13%	·	-1.8%	5%	·
O=C(O)COc1ccc2oc3ccccc3c2c1
 : 7%	11%	1%	0%	-12%	·	·	?
CCOC(=O)CSc1nc(C)c2cccc(C)c2n1
 : 15%[46.1 µM]	-2%	-4%	-2%	-22%	·	·	9%[46.1 µM]
CCOC(=O)C1=C(CN2CCSCC2)NC(=O)NC1c1ccc2c(c1)OCO2 (configuration not stated)
 : 12%	-13%	·	0%	-21%	·	·	1%[46.1 µM]
Cc1cc(/C=C2\SC(=O)NC2=O)c(C)n1-c1ccc(N2CCOCC2)cc1
 : -25%[46.1 µM]	4%	0%	-1%	-10%	·	·	-2%[46.1 µM]
Cc1ccc(N(C(=O)c2ccc(CN3CCOCC3)o2)C(C(=O)NCCC(C)C)c2cccs2)c(C)c1 (configuration not stated)
 : -15%	-7%	-13%	18%	-19%	-4.5%	?	?
Cc1cc(O)c(C(C)C)cc1N=Cc1ccccc1[N+](=O)[O-]
 : -4%[46.1 µM]	-7%	·	·	-6%	·	·	?
Cc1ccc(OCCN2CCN(C)CC2)c([N+](=O)[O-])c1
 : 9%	4%	1%	-3%	11%	-0.7%	1%	?
CCOc1ccccc1Nc1ccc(C(=O)O)cc1NC(C)=O
 : 5%	-6%	0%	7%	-6%	-7.4%	-4%	5%
O=C(c1ccc(-c2ccc(Cl)cc2)o1)N1CCN(c2ccc([N+](=O)[O-])cc2Cl)CC1
 : ?	8%	28%	-5%	-27%	-4.3%	7.9µM*	-1%
CCN(CC)S(=O)(=O)c1ccc(NC(=O)c2c(C)oc3ncnc(N4CCCCC4)c23)cc1
 : ?	·	·	·	0%	-2.2%	7%	·
COc1ccc(CN(CC(=O)NCCc2ccccc2)C(=O)CCC(=O)Nc2cc(C)ccn2)cc1
 : ·	-15%	-8%	1%	-10%	·	·	4%[46.1 µM]
O=C(NCCCc1ccccc1)c1ccc(CS(=O)Cc2ccc(Cl)cc2)o1 (configuration not stated)
 : ·	12%	3%	-3%	-13%	·	·	·
O=C(c1ccccc1)N1CCCC(c2ccc(Cl)cc2)=N1
 : ?	0%	-53%	-32%	·	-7.4%	5%	-26%
Cn1cc(S(=O)(=O)N2CCCC2)cc1C(=O)NCCc1ccccc1
 : ·	7%	1%	0%	29%	·	·	·
c1ccc(-c2csc(-n3cnnn3)n2)cc1
 : ?	1%	-14%	2%	0%	-3.4%	-2%	?
Cc1nnsc1C(=O)Nc1ccccc1Cl
 : 0%	24%	8%	-3%	3%	-3.6%	8%	1%
O=C(O)Cc1cc(C(=O)Nc2ccc(Br)cc2)sc1-c1ccccc1
 : -1%	·	4%	-19%	·	-22%	-5%	-1%
CSc1nnc(C)c(=O)n1COC(=O)COc1ccc(F)cc1
 : 6%[46.1 µM]	-7%	·	0%	-3%	·	·	1%[46.1 µM]
CC(C)Cn1c(N)c(C(=O)CCl)c(=O)n(C)c1=O
 : 6%	-6%	8%	-9%	?	1.5%	-4%	17%
O=c1[nH]cnc2scc(-c3ccc(F)cc3)c12
 : -2%	10%	-31%	-1%	-3%	1.5%	5%	21%
CCOC(=O)C1=C(CC)OC(N)=C(C#N)C1c1ccc(F)cc1F (configuration not stated)
 : 2%	16%	-4%	-2%	-26%	·	·	-26%[46.1 µM]
NC(=NCCC[C@H](N)C(=O)O)N[N+](=O)[O-]
 : -5%	·	-10%	·	-18%	3.0%&-2.7%	2%&0%	?
COc1ccccc1C(=O)Nc1ccc2c(c1)nc(CN1CCCCC1)n2C
 : -15%&3%[46.1 µM]	-3%	4%	-1%	-22%&-26%	-10%	1%	17%&5%[46.1 µM]
O=C1Nc2ccc([N+](=O)[O-])cc2C1=Nc1cccc(CO)c1
 : 4%	-14%	·	3%	5%	·	·	4%[46.1 µM]
CC(=O)c1cc(OC(=O)c2ccncc2)ccc1OC(=O)c1ccncc1
 : 7%	-15%	-11%	-3%	-12%	3.5%	-7%	?
CCSc1nnc(CCNS(=O)(=O)c2ccc(C(C)=O)cc2)n1C
 : ·	1%	0%	1%	5%	·	·	12%[46.1 µM]
O=C(NCCCNC(=O)C(F)(F)C(F)F)C(F)(F)C(F)F
 : -6%	-1%	2%	-6%	8%	6.1%	4%	4%
Cc1nc(CS(=O)(=O)c2ccccn2)sc1C(=O)NNC(=O)c1c(F)cccc1Cl
 : ?	2%	6%	1%	-12%	·	·	1%
CCOC(=O)c1c(N)n(-c2ccc(Cl)c(Cl)c2)c2nc3ccccc3nc12
 : 11%[46.1 µM]	·	·	·	-22%	-1.3%	3%	-1%[46.1 µM]
Cc1cccc(C(=O)N/N=C/C(C)Cc2ccc3c(c2)OCO3)c1 (configuration not stated)
 : 19%	-5%	19%	9%	6%	-2.1%	16%	1%
CCN(CC)S(=O)(=O)c1nnc(NC(=O)c2ccc(C)cc2)s1
 : 12%[46.1 µM]	·	·	·	29%	0.9%	15%	·
CC(=O)Nc1c(C)nn(-c2ccccc2)c1N1CCC(C(=O)NCc2ccccc2Cl)CC1
 : -19%[46.1 µM]	·	·	·	-5%	28µM*	15%	·
Cc1ccc(C)c(NC(=O)c2cc(S(=O)(=O)NCCc3ccccc3)ccc2F)c1
 : -7%[46.1 µM]	·	·	·	54%[activator]	-0.8%	7%	·
c1cc(N2CCCCC2)nc(N2CCCCC2)n1
 : -16%[46.1 µM]	-10%	·	·	-2%	·	·	?
COCCSc1nnc(NC(=O)C2CC(=O)N(CCc3ccc(F)cc3)C2)s1 (configuration not stated)
 : 16%	9%	8%	-7%	-1%	·	·	0%[46.1 µM]
CCc1cc(C(=O)OC)c(NC(=O)CCC(=O)O)s1
 : 4%	-7%	14%	1%	-17%	2.3%	-16%	-15%
Cc1ccc(C)c(N2CCN(C(=O)c3cnc4c(-c5ccccc5)c(C)nn4c3C)CC2)c1
 : -5%[46.1 µM]	·	·	·	0%	-9.5%	?	·
NC(=O)c1c(NC(=O)c2ccc(S(=O)(=O)N(CCCl)CCCl)cc2)sc2c1CCCCC2
 : -1%	-12%	12%	-7%	-20%	1.3%	4µM*	18%
CC(C)(C)/C(O)=C/c1nc2cc(Cl)ccc2oc1=O
 : -21%[46.1 µM]	-16%	-56%	-3%	-17%	·	·	?
COC(=O)c1ccccc1NC(=O)CC(=O)Nc1ccccc1C(=O)OC
 : ·	0%	0%	-3%	-10%	·	·	·
O=C(Nc1nc2c(Br)cc(Br)cc2c(=O)s1)c1ccco1
 : 7%	4%	-4%	-2%	-5%	·	·	-5%[46.1 µM]
COc1cc(Cl)c(C)cc1NC(=O)CN1C(=O)C2CCCCC2C1=O (configuration not stated)
 : 0%	-5%	·	10%	-4%	·	·	16%
CC(NC(=O)c1ccco1)c1ccc2c(c1)OCCO2 (configuration not stated)
 : 16%	9%	4%	-17%	-16%	0.4%	2%	21%[46.1 µM]
O=C(CNC(=O)c1cc(Cl)nc2ccccc12)Nc1ccccc1Br
 : 10%	?	·	0%	-14%	·	·	-6%

More compounds
Values run as follows: Lassa entry inh	RE007 growth inh	NS1 function inh	SARS PLP yeast	StopGo reporter	Cruzain inh Det	Cruzain inh noDet	MARV entry inh
COc1ccc(NC(=O)Nc2ccc(F)cc2F)c(C)c1
 : -2%	-3%	-12%	-4%	9%	2.6%	-25%	?
COc1ccc(Cl)cc1NC(=O)CSC1=Nc2ccccc2C2=NC(CC(=O)NCc3cccs3)C(=O)N12 (configuration not stated)
 : ?	·	·	·	-26%	-12%	4%	?
COc1cccc(NC(=S)N2C3CCCC2CC(NC(=O)C2CC2)C3)c1 (configuration not stated)
 : 9%	-1%	-3%	-1%	-5%	·	·	2%[46.1 µM]
C=CCN(CC=C)C(=O)C1CCN(S(=O)(=O)c2ccc(-n3cnnn3)cc2)CC1
 : 10%	6%	3%	0%	-14%	·	·	-7%[46.1 µM]
Cc1ccc2nc(C)c(C(=O)N/N=C/c3cccs3)cc2c1
 : 3%	6%	16%	11%	4%	-5.8%	0%	?
NC(=O)c1ccc(-n2nnnc2SCC(=O)Nc2ccc(F)cc2)cc1
 : 0%	1%	4%	0%	-3%	·	·	?
O=C(CSc1nnc(CNC(=O)c2ccc(F)cc2)o1)c1ccccc1
 : -6%	-10%	1%	3%	1%	·	·	5%
CSc1ncc(Cl)c(C(=O)Nc2c(C(=O)Nc3cccc(C)c3)oc3ccccc23)n1
 : 27%[46.1 µM]	·	·	·	-3%	-1.8%	-10%	0%[46.1 µM]
Cc1nc2c(o1)C(=O)c1ccccc1C2=Nc1ccccc1
 : 11µM*	7.1µM*	·	·	18µM*	·	·	?
N#Cc1ccc(-c2cccnc2)nc1SCC(N)=O
 : ·	-8%	6%	0%	-4%	·	·	·
